rRNA inh HTS: inhibits bacterial ribosomal RNA function over humanized ribosomes; E. coli WT GFP vs humanized-ribosome RFP mutants, fluorescence, 24 h; stronger effect = lower value; DMSO median 0, no signal -100; GFP signal change (wild-type ribosome), % (no concentration beside the values); actives 1.6% (n = 350,000); AID 720706;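 active = significant combined selectivity score with lowered wild-type GFP, culture density cut under 30%, mutant RFP and density less affected; inactive = any of these conditions unmet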; note: one replicate is shown; some compounds called inactive have numbers as strong as hits
Beta cell apopt: beta cell apoptosis inhibition. INS-1E cytokine-induced death, ATP luminescence, 48 h; percent of positive-control rescue, neutral wells zero. protection from apoptosis, % (test concentration not listed). actives 0.8% (n = 300,000). AID 435005;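 active = all replicates at 75% or more, or half of them and the mean; inconclusive = half reach 75% but not the mean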;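 note: 0% = cytokine-treated negative control wells and 100% = positive control rescue; higher means more ATP so stronger rescue from cytokine killing; wells of about 40 µL received 100 nL stock; the first replicate is given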
Calb FLC: affects C. albicans growth with fluconazole; C. albicans CaCi-2 (fluconazole-resistant clinical isolate) + fluconazole, Alamar Blue growth, 48 h; AID 1979; actives 0.57% (n = 300,000); growth inhibition, % (concentration not given with the values);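 active = most replicates above 75%; inconclusive = exactly half above 75%; inactive = most below 75%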;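 note: all wells also contain fluconazole at 8 µg/ml as a sub-toxic cotreatment; 0% = median of DMSO wells and 100% = median of geldanamycin control wells; wells of about 8 µL received 7.5 nL stock; the first replicate is given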
MLL AF4-AF9 inh: inhibitors of human MLL-AF4/AF9 interaction | P42568 | AlphaScreen, biotin-AF4 peptide binding to FLAG-AF9 | inhibition, % at 10 µM | actives 0.47% (n = 350,000) | AID 651704;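 active = every replicate reaching a set inhibition limit, whatever the replicate mean, cut at about 25% in these data; inconclusive = mean inhibition reaches that limit but some replicates miss it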;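 note: 0% = plate neutral control median and 100% = total signal loss; the record names both 10 and 1 µM as test concentration; the first replicate is given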
Target sequence (P42568 whole entry, looked up): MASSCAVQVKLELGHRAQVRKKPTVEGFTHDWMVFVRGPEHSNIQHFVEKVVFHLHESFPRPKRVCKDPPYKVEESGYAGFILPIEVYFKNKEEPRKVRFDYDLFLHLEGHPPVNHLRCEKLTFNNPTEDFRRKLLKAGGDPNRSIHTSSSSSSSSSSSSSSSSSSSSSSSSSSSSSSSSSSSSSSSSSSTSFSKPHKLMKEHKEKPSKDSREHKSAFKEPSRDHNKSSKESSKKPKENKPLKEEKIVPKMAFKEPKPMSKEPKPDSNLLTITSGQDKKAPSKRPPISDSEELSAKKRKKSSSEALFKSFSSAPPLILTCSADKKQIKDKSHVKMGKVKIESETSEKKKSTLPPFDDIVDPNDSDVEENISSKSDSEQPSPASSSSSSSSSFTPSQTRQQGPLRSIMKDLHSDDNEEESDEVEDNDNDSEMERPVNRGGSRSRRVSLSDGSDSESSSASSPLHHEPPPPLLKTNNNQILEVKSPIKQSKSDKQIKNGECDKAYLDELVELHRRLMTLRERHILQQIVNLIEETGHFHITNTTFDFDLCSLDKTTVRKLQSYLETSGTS
ALR inh: human ALR oxidase inhibition via reduced H2O2. AID 485317. P55789. purified ALR, DTT oxidation, H2O2 HRP-luminol luminescence. actives 3.8% (n = 290,000). inhibition, % (concentration not given with the values);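 active = mean and each replicate at 75% or more; inconclusive = only one of the two met; inactive = neither met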;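 note: stock transfer was 7.5 nL into about 7.5 µL; 0% = neutral wells and 100% = wells with inactivated enzyme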
Target sequence (P55789 whole entry, looked up): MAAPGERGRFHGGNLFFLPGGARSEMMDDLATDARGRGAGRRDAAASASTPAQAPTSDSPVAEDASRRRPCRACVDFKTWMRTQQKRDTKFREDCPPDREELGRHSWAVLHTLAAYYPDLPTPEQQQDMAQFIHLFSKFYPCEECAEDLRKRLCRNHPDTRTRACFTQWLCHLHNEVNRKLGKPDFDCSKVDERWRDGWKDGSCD
T cruzi inh: blocks replication of Trypanosoma cruzi | T. cruzi beta-gal in NIH3T3, luminescence, 90 h | inhibition, % (no concentration beside the values) | actives 1.4% (n = 300,000);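 active = mean inhibition across valid replicates above about 55%, limit read from the data; inconclusive = mean below that limit but half or more replicates reach it; inactive = mean below it, under half of replicates reach it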;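 note: signal also drops with host cell toxicity which is not excluded here; 0% = plate median of DMSO wells and 100% = zero luminescence signal; higher percent means less beta-gal luminescence so fewer parasites; stock transfer was 50 nL into about 50 µL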
RanGTP-Impb inh: inhibitors of RanGTP-importin-beta interaction, primary screen, biochemical, FRET, CFP-Ran, YFP-importin-beta, homogeneous. cell-free CFP-Ran/YFP-importin-beta FRET ratio. inhibition, % (concentration not given with the values). actives 1.1% (n = 300,000);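 active = most replicates above 15%; inconclusive = exactly half above 15%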;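 note: 0% = DMSO wells and 100% = Ran loaded with GDP instead of GTP; wells of about 40 µL received 100 nL stock; the first replicate is given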
FGF22 binding: shifts melting point of recombinant human FGF22; calls only at 9.99 µM; recombinant FGF22 thermal shift, SYPRO orange fluorescence; percent of sucrose octasulfate shift, DMSO zero; Q9HCT0; AID 651658; actives 1.5% (n = 340,000);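 active = melting point raised past a set limit in the mean and every replicate; inconclusive = no clear call; three in four hits are not shown here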
Target sequence (Q9HCT0 whole entry, looked up): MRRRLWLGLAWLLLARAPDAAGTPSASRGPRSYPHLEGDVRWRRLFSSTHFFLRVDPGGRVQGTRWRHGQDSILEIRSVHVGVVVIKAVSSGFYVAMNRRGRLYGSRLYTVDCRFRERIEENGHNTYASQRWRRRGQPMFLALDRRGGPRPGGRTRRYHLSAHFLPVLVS
rRNA inh HTS OD600: recorded beside rRNA inh HTS, whose call it bears; OD600 change, %; measured here: OD600 growth;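 optical density of the mix in the first replicate; 0 = DMSO median and -100 = no signal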
rRNA inh HTS RFP: also measured in rRNA inh HTS; calls as there; RFP signal change, %; measured here: RFP humanized mutant strains;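 first replicate; 0 = DMSO median and -100 = no signal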
Starred values were filed as active, the others as inactive; i = inactive; ? = inconclusive; . = not tested or not shown. The list is partial; rates above refer to the full screens.

molecule	rRNA inh HTS RFP	RanGTP-Impb inh	Calb FLC	ALR inh	T cruzi inh	Beta cell apopt	FGF22 binding	rRNA inh HTS	MLL AF4-AF9 inh	rRNA inh HTS OD600
NC(=O)Cn1c(=O)n(Cc2ccco2)c(=O)c2c3c(sc21)CCCCC3	.	-3.8	-9	8	-45	-4	.	.	.	.
O=C1C(=O)N(C2CCCC2)C(=O)N1Cc1c(F)cccc1Cl	-3.3	-3.5	-9	9	-3	-12	.	0	-6.0	4
COc1ccc(N2C(=O)CC(N3CCC(O)(c4ccc(Br)cc4)CC3)C2=O)cc1 (stereo not drawn)	.	4.6	-7	-1	-10	-9	.	.	.	.
CC(=O)N1CCN(C(=O)c2cc(-c3ccc(Cl)s3)nc3ccccc23)CC1	2.3	-2.2	11	-13	4	0	i	6	3.9	2
COc1cc(C2N(c3cc(C)on3)C(=O)C3CCCN32)cc(OC)c1OC (stereo not drawn)	.	-2.8	-5	-16	-3	0	.	.	.	.
Clc1ccc(C2=Nn3c(nnc3-c3cccnc3)SC2)s1	.	-2.0	0	-8	5	-8	.	.	.	.
Cc1nc(SCC(=O)Nc2ccnc3ccccc23)n[nH]1	.	-0.7	-20	-15	9	0	.	.	.	.
O=S(=O)(Cc1ccccc1Cl)NCc1ccccc1	-2.3	-1.8	-11	-2	-2	-2	i	-12	0.1	-15
C/C(=N\NC(=S)Nc1ccccc1C)C1Cc2ccccc2C(=O)O1 (stereo not drawn)	2.3	0.7	8	5	.	0	i	3	1.3	4
CCOC(=O)c1sc(NC(=O)c2cc(-c3ccc(C)cc3)nc3ccccc23)c(C#N)c1C	.	3.9	-10	-9	-6	11	.	.	.	.
CCCCCCc1cc2cc(C(=O)Nc3cccc(OC)c3)c(=O)oc2cc1O	.	156*	-4	-4	-9	99*	.	.	.	.
CCCN1CCC(NC23CC4CC(CC(C4)C2)C3)CC1	.	2.2	-5	-3	-11	8	.	.	.	.
Cc1ccnc(SCC(=O)c2ccc(Br)s2)n1	-6.8	-0.2	11	85*	3	-5	i	-23	-2.7	-27
Cn1cc(SCC(=O)Nc2nccs2)c2ccccc21	-0.7	-0.9	-3	98*	-8	-5	i	-5	2.0	-12
CCn1c(SCC(=O)c2ccc(NS(=O)(=O)c3ccccc3)cc2)nnc1-c1cccs1	.	0.4	-12	4	8	.	.	.	.	.
CC(C)n1nnc2c(=O)oc3ccccc3c21	.	0.3	-4	5	-9	-4	.	.	.	.
O=C(C1=C(O)C(=O)N(CCc2ccccc2)C1c1cccs1)c1ccco1 (stereo not drawn)	0.5	1.0	16	-7	-1	-1	i	-39	-0.8	-49
Cc1c(C)c(C)c(S(=O)(=O)N2CCC3(CC2)OCCO3)c(C)c1C	6.5	1.8	-2	0	-1	8	i	-2	0.6	-27
CCCn1cc(CN2CCC(n3nccc3NC(=O)c3ccc4c(c3)OCO4)CC2)c(C)n1	-0.8	0.2	-7	-8	27	2	i	3	1.6	4
Cc1ccc(C23CC4CC(CC(C(=O)OCC(=O)NC5CCS(=O)(=O)C5)(C4)C2)C3)cc1 (stereo not drawn)	.	5.5	7	.	13	-4	.	.	.	.
O=C(O)c1ccc(NC2OC[C@@H](O)[C@H](O)[C@H]2O)cc1 (stereo partly drawn)	.	-4.9	-4	4	0	.	i	.	-4.5	.
CCOC(=O)c1ccc(NC(=S)NCc2ccc(S(N)(=O)=O)cc2)cc1	3.6	-3.3	-7	-12	-1	-3	i	-4	4.7	-5
Cc1ccc(S(=O)(=O)NCCc2ccncc2)cc1[N+](=O)[O-]	-0.7	1.9	2	-7	-6	-1	i	-3	-0.5	11
COCCn1nnnc1C(c1cc(OC)ccc1OC)N1CCc2ccccc2C1 (stereo not drawn)	.	0.0	-1	8	28	2	.	.	.	.
C=C(C)C(=O)Nc1cccc(C2=NOC3(C2)C[C@@H](C(N)=O)N(C(=O)CC(c2ccccc2)c2ccccc2)C3)c1 (stereo partly drawn)	33	?	9	.	16	-4	i	-6	-31	-16
O=C(Nc1nnc(-c2ccccc2)o1)c1cc(-c2cccs2)nc2ccccc12	-14	-1.7	89*	23	-15	4	i	-55	2.0	-75
COc1ccc(/C=C2\SC(=S)N(CC(=O)OCC(=O)Nc3ccc(C)cc3Cl)C2=O)cc1	2.6	18*	-14	-20	2	0	i	-1	3.6	1
Cc1ccsc1/C=C(\C#N)C(=O)NCCCN1CCOCC1	-1.4	4.2	3	.	-17	2	i	8	?	-4
O=C1[C@@H]2Cc3c([nH]c4ccccc34)CN2C(=O)CN1CCCO	6.8	0.0	1	-18	-1	-5	i	14	-0.9	11
Cc1nn(-c2ccccc2)c(N2CCCC2)c1C=O	2.7	-3.6	-11	4	12	-9	i	5	2.7	3
O=C1Nc2ccc(Br)cc2C1=Nc1ccc(-c2nnc3n2CCCCC3)cc1	.	-2.0	8	.	6	-11	.	.	.	.
CCCCNc1ccc(S(N)(=O)=O)cc1[N+](=O)[O-]	.	7.9	4	1	10	3	.	.	.	.
CN(C)S(=O)(=O)c1ccc(C(=O)Nc2cc3c(cc2C(=O)O)OCCCO3)cc1	-4.7	-0.3	-7	6	4	-5	i	-3	-2.0	1
COC(=O)C(C(=O)OC)C(C[N+](=O)[O-])c1ccc(OC)cc1 (stereo not drawn)	.	0.4	-7	6	-9	-4	.	.	.	.
CCC1CCCCN1C(=O)CSc1nnc(N)s1 (stereo not drawn)	-2.3	.	.	.	.	-2	i	3	-0.5	4
CCOc1ccc(C(=O)C(CN2CCOCC2)c2ccccc2)cc1 (stereo not drawn)	.	2.7	3	0	-9	-4	.	.	.	.
COc1cccc(CC2(CO)CCCN(Cc3ccc(-c4ccco4)cc3)C2)c1 (stereo not drawn)	13	5.1	-30	8	58*	-6	i	-5	6.1	-5
COc1ccc2nc(/N=C\N(C)C)sc2c1	.	1.9	?	-5	-16	-6	.	.	.	.
CCC(CO)Oc1cc(NC(=O)c2cccc(Cl)c2)c2ncn(C(C)C)c2c1 (stereo not drawn)	-4.9	.	.	-29	.	1	i	-10	2.5	5
O=C(CSc1nncn1-c1cccnc1)Nc1cccc([N+](=O)[O-])c1	-0.7	0.7	-12	.	-5	3	i	4	5.2	13
CCN(CC)CCNC(=O)c1ccc(NC(=O)c2c(C)nn(-c3ccc(F)cc3)c2Cl)cc1	-2.4	1.6	10	.	6	-1	i	-2	8.1	-1
CC(=O)N1CCCc2cc(S(=O)(=O)N(C)CCC#N)ccc21	.	2.0	-4	-3	-5	1	.	.	.	.
CN(CC(=O)NNC(=O)Cc1ccccc1F)S(=O)(=O)c1ccc(Cl)cc1	0.6	-2.3	3	.	-2	-3	i	10	6.2	7
COC(=O)c1c(-c2ccccc2)noc1-c1ccccc1	-6.2	2.6	-5	5	1	-2	i	-27	-1.0	-42
CC(C)CC(=O)N1CCN(Cc2ccccc2Cl)CC1	-3.9	3.5	4	-10	-6	-3	i	4	-1.8	-2
CCOc1ccc(/C(O)=C2/C(=O)C(=O)N(Cc3cccnc3)C2c2ccc(N(C)C)cc2)c(C)c1 (stereo not drawn)	-5.2	2.6	3	14	1	-4	i	5	-40	12
CN(C)/C=C/C=C1C(=O)CCCC1=O	.	1.9	19	33	12	-7	.	.	.	.
COC(=O)[C@@H]1C[C@@]2(O)[C@H](O)[C@H](O)[C@H](O)C[C@H]2N1Cc1ccc(C(F)(F)F)cc1	0.4	0.8	-7	14	-10	-1	i	6	.	0
CCOc1ccc(/C=N/NC(=O)c2ccccc2O)cc1CN1CC2CC(C1)c1cccc(=O)n1C2 (stereo not drawn)	3.0	.	.	15	.	-4	i	-8	.	-7
COC(=O)c1cccc(NC(=S)NCCC2=CCCCC2)c1	-11	-0.3	-4	-3	3	37	.	-32	.	-48

Further results follow.
molecule	rRNA inh HTS RFP	RanGTP-Impb inh	Calb FLC	ALR inh	T cruzi inh	Beta cell apopt	FGF22 binding	rRNA inh HTS	MLL AF4-AF9 inh	rRNA inh HTS OD600
Cc1ccc2oc(=O)c3cnn(CC(=O)N4CCN(c5ccccn5)CC4)c3c2c1	0.4	-1.9	-2	.	0	-3	i	8	7.6	4
CCOc1ccc(NC(=O)CCC(=O)Nc2nnc(CC)s2)cc1	-2.0	-2.2	7	1	0	2	i	4	1.3	15
CCCn1c(C(O)c2cc(OC)c(OC)c(OC)c2)nc2ccccc21 (stereo not drawn)	1.4	6.9	-5	0	-6	-2	i	3	-2.1	2
Cc1ccc(CSc2nnc(-c3cccc(S(=O)(=O)N4CCOCC4)c3)n2CC(C)C)cc1	-24	6.1	-16	-20	25	-1	i	-48	2.3	-72
Cc1ccc(SCC(=O)c2c(C)nc3cc(C)ccn23)cc1	-0.5	0.4	55	-7	-7	-2	i	-9	-3.8	-6
O=C(O)c1cc(N2C(=O)C3CC=CCC3C2=O)ccc1NCc1cccnc1 (stereo not drawn)	.	0.4	-17	-3	-9	1	.	.	.	.
O=C1C=C(c2ccc(F)nc2)CCC1	.	?	-7	.	-8	-7	.	.	.	.
COC(=O)/C(=C/c1c[nH]c2ccccc12)[N+](=O)[O-]	.	0.8	-4	52	-34	3	.	.	.	.
CN1CCC(NC(=O)c2cccc(Oc3ccccc3)c2)CC1	-1.1	.	.	-1	48	-8	i	6	0.2	5
COc1ccc(-c2cc(CNC(C)=O)on2)cc1	.	3.3	3	.	5	-1	.	.	.	.
CCn1ncc(CN2CCN(Cc3cccc(OC)c3)C(CCO)C2)c1C (stereo not drawn)	-1.8	2.2	-3	-5	-2	-2	.	17	0.2	17
CSCC[C@@H](C(=O)Nc1ccc2c(c1)OCCO2)N1Cc2ccccc2C1=O	-2.9	4.4	-3	-6	0	-1	i	2	7.6	-12
CCS(=O)(=O)c1nc(S(=O)(=O)c2ccc(C)cc2)c(NCCCN2CCCC2=O)s1	-1.5	0.5	7	2	2	-4	i	2	0.0	10
Cc1ccc(C)c(C(=O)CCC(=O)Nc2ccc(N3CCN(C)CC3)cc2C)c1	2.1	.	.	7	.	0	i	-1	9.2	-3
Cc1[nH]c2ccccc2c1NC(=O)CN1CCN(C(=O)c2ccco2)CC1	0.5	-4.9	5	22	-26	-3	i	12	-0.8	10
COc1cc(C2N=C(c3ccccc3)NO2)cc(Br)c1O (stereo not drawn)	.	3.4	19	98*	-13	-1	.	.	.	.
NC(=O)CSc1c[nH]c2ccccc12	.	.	9	-1	-11	1	.	.	.	.
O=C(c1cccc(S(=O)(=O)N2CCc3ccccc32)c1)N1CCCC(C(F)(F)F)C1 (stereo not drawn)	-1.1	-3.0	-3	0	10	-1	i	-10	0.5	-23
Cc1ccc(S(=O)(=O)Oc2ccc(/C=C(/NC(=O)c3ccccc3)C(=O)O)cc2)cc1	2.5	1.2	0	22	7	7	i	-11	-0.2	-9

Compound activity: PubChem, Broad Institute
